Bioassay records (PubChem)
NPYLR7 ag – agonists of mosquito NPYLR7 receptor, primary screen, cell-based, Aedes aegypti, calcium fluorescence, mosquito biting behavior; HEK293T NPYLR7/Galpha15, GCaMP6s calcium fluorescence; actives 0.15% (n = 270,000); activation, % at 10 µM; AID 1259423, 2018; Aedes aegypti neuropeptide Y-like receptor 7 (NPYLR7); in the data active = activation above about 40%;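 note: 0% = vehicle and 100% = reference agonist at the receptor; some compounds past the cut are filed as inactive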
NPYLR7 ag max-min – recorded beside NPYLR7 ag, whose call it bears; activation, %; measured here: Max-Min RFU normalised activation; some inactives read as strong as hits;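 span of the calcium signal over five minutes; 0% = vehicle and 100% = native peptide agonist; compound fluorescence can raise it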
The depositor's hits bear a star; & = joins results of further samples. An excerpt (hit frequency here may not be typical).

SMILES	NPYLR7 ag	NPYLR7 ag max-min
COc1cc(C(C)=O)ccc1OCC(=O)NCCn1nc(-c2cccs2)ccc1=O	0	-1
CCCCCCCOc1ccc(NC(=O)N2CCC[C@H]2C(=O)N2CCC(C(=O)Nc3ccc(OC)cc3)CC2)cc1	10	26
O=C(/C=C/c1ccccc1)N(Cc1ccncc1)c1nc2ccc(F)cc2s1	-1	-9
CCS(=O)(=O)c1ccc(-c2ccc(NS(=O)(=O)c3cc(C)ccc3C)cc2)nn1	11	4
C=CCNC(N)SCCCCSC(N)NCC=C (stereo unspecified)	-3	-5
CCCCCOc1ccc(C(=O)NCCc2cccc(OC)c2)cc1OCCCCC	-1	-5
Cc1cccc(C)c1Cn1c(C)c(C(=O)NCc2cccs2)sc1=O	14	5
CC1CC(C)CN(S(=O)(=O)c2ccc(Cl)c(C(=O)O)c2)C1 (stereo unspecified)	-29	-33
CCOC(=O)c1[nH]c(C)c(C(=O)C(C)N(C(=O)c2ccccc2F)C(C)C)c1C (stereo unspecified)	-3	1
CC(C)c1ccc(-c2c(NC(C)(C)C)c(=O)c2=O)cc1	8	7
Cc1ccc(N2CCCC2)c(C(=O)N(C)CC(=O)NC(C)C)c1	5	3
COCC(C)NCCc1csc(-c2ccncc2)n1 (stereo unspecified)	6	3
CNC(=O)Nc1cn(CCOC)c2ccccc12	12	4
CC(C)c1c(C(=O)NCc2ccco2)c(C2CC2)nn1-c1ccc(F)cc1	18	16
COc1cc(NC(=O)Cn2nc([N+](=O)[O-])cc2C)cc([N+](=O)[O-])c1	-4	-10
CCOC(=O)C(=O)N[C@H]1[C@H](OC(C)=O)[C@@H]2O[C@H]1c1ccccc12	1	14
CN(CCNC(=O)CSCc1ccccc1Cl)S(C)(=O)=O	-3	-3
CC1CN(c2cc(Cl)nc(SCC(=O)NCc3ccccn3)n2)CCN1C(=O)C1CCCCC1 (stereo unspecified)	7	5
CCOc1ccccc1C(=O)N1CCc2cc(OC)c(OC)cc2C1c1cccc(Cl)c1 (stereo unspecified)	-2	7
CC(C)c1nnsc1CN1CCC2(C1)CN(C)C(=O)O2 (stereo unspecified)	5	2
Cc1cc(C)c2[nH]c(=O)c(-c3c(-c4ccccc4)ncn3C3CCNC3)cc2c1 (stereo unspecified)	9	8
O=C(c1ccc(Cl)cc1)N1CCSC12CCN(S(=O)(=O)c1ccc(F)cc1)CC2	-5	-2
COc1ccc(/C=N\NC(=O)c2ccncc2)c(C(=O)O)c1OC	-17&-19	-23&-32
COC(=O)c1cc(OC(=O)C=Cc2cc(OC)c3c(c2)OCCO3)cc(C(=O)OC)c1	-1	21
NC(=O)C(OC(=O)C1(CC(=O)N2CCOCC2)CCCC1)c1ccccc1 (stereo unspecified)	0	6
CCn1nc(CO)c2c1CCN(c1nccc(C3CCCC3)n1)C2	1	-5
CCN(C(=O)c1cc2cc(OC)ccc2oc1=O)C1CCCCC1	3	2
CC1CN(C(=O)NCC2CN(C)CCN2C)CC(C)S1 (stereo unspecified)	13	9
Cc1c[nH]c(CN2CCC(=O)N(CC3CC3)C(C(C)C)C2)c(C)c1=O (stereo unspecified)	0	8
O=C(c1ccc(-n2cnnc2)cc1)N1CCC2(C=Cc3ccccc32)CC1	9	6
O=C1CCN(CC(=O)Nc2ccc(Cl)cc2C(F)(F)F)CC1	6	2
CCc1[nH]c2ccc(CNc3nccc(N4CCCC(O)C4)n3)cc2c1C (stereo unspecified)	-1	-4
COc1ccc(Cc2nc3ccc(C(=O)N(C)Cc4nnc(C)o4)cc3o2)cc1	5	5
O=C(N[C@@H]1CCCCC1NC(=O)C1CCCN(S(=O)(=O)c2ccccc2)C1)c1ccc(F)cc1 (stereo partly specified)	2	8
O=C(CCc1nc(-c2ccncc2)no1)Nc1ccc2c(c1)OCCO2	3	1
O=C(NC1C2COCC1CN(CCOc1ccccc1)C2)c1cncnc1 (stereo unspecified)	-4	-3
Cc1nn(-c2ccccc2)c(C)c1CC(=O)NC(c1nccn1C)C1CC1 (stereo unspecified)	-2	-4
CNc1snc(C)c1C(=O)OCc1ccc(-n2cccn2)cc1	0	0
Cc1ccc(-c2n[nH]c(=O)c3c2CCCC3)cc1S(N)(=O)=O	-9	-12
NC(=O)c1ccc(NC(=O)CCNC[C@H]2C[C@H]3C=C[C@H]2C32CC2)cc1	9	8
O=C1CCC(C(=O)N2CCC(CCn3cccn3)CC2)CN1CCN1CCOCC1 (stereo unspecified)	2	-2
CCn1c(=O)c(C(=O)NC2CC2)nn(-c2ccc(OC)cc2)c1=O	2	14
CC(C)C(=O)N1CCC(NCC2=Cc3cc(Cl)ccc3OC2)CC1	10&6	9&6
CC(C)Oc1ccc(CN2CCC2(C)C(=O)N2CCN(C(=O)c3ccco3)CC2)cc1 (stereo unspecified)	4	2
Cc1ccc2ncc(C(=O)N(C)Cc3ccco3)c(=O)n2c1	5	3
CC(C)n1c(CN2CCC(C3(C)NC(=O)NC3=O)CC2)nc2ccccc21 (stereo unspecified)	18	12
CC(C)N(CCC(=O)NC(c1ccccc1)c1ccccc1)c1nc(Cc2ccc(Cl)cc2)ns1	24	27
COCc1ccc(C(=O)N2CCCC(CCc3ccccc3C)C2)o1 (stereo unspecified)	2	-1
O=S(=O)(c1ccc2c(c1)OCCO2)N1CCN(c2nc3ccccc3o2)CC1	2	-2
CC(C)c1nnc(-c2cc3ccccc3n2C)o1	-9	-6
O=C(Nc1ccc(F)cc1)c1cccc(S(=O)(=O)N2CCc3ccccc32)c1	-4	-10
C1CN(CC23CCC4CC(CC(C4)C2)C3)CCO1	12	4
Cc1nnc(CN(C)Cc2cn(Cc3ccccc3)nc2-c2ccc3c(c2)OCO3)o1	1&-4	1&-8
COc1cccc(N2C(=O)CN(Cc3c[nH]c4ccccc34)CC2C)c1 (stereo unspecified)	24	6
COc1ccc(Cc2nc3ccc(C(=O)N4CCc5ccccc5C4)cc3o2)cc1OC	16	7
CC[N+](CC)(CC)CC	2	1
O=C(Nc1cccnc1N1CCCC1)N(Cc1ccco1)CC1CCCO1 (stereo unspecified)	1	1
CN1/C(=C/C(=O)Cn2cnc3c(cnn3C)c2=O)C(C)(C)c2ccccc21	8	7
CSc1ncccc1C(=O)N1CCC1(C)C(=O)NC(C)C (stereo unspecified)	-1	-5
COc1ccccc1CCNC(=O)C(C1CCCC1)N1CCN(C(=O)COCc2ccccc2)CC1 (stereo unspecified)	4	0
Further compounds:
SMILES	NPYLR7 ag	NPYLR7 ag max-min
Cc1cc(NC(=O)C2CSCN2C(=O)C2CCC2)ccc1N(C)C (stereo unspecified)	6	5
CCN1CC(NC(=O)c2ccc(-c3nnn(C)n3)cc2)CC1=O (stereo unspecified)	1	2
O=C1OCCCN1CCn1cnc(-c2ccccc2)c1-c1cccnc1	16	0
O=C1C(Br)C[C@@H]2[C@H]1C1CCC2(Br)C12OCCO2 (stereo partly specified)	-5	-6
Cc1nc(-c2cccc(NC(=O)C3=NN(C)C(=O)CC3)c2)cs1	8	8
O=C1CC(c2ccccc2)N(C(=O)/C=C/c2ccc(-c3ccccc3)s2)CCN1 (stereo unspecified)	1	7
O=C1CCN(CC(=O)NC23CC4CC(CC(C4)C2)C3)CC1	-2	-5
CCC(C)(C)NC(=O)COC(=O)c1ccc(-c2ccc(O)cc2)cc1	9	5
O=C(CSC/C=C/c1ccccc1)NCc1ccc(Cl)cc1	-8	-13
COc1cc(OC)cc(C(=O)N2CCCN(c3nc(CCC(C)C)nc4c3cnn4-c3cccc(Cl)c3)CC2)c1	25	28
Nc1cc(-c2cccc(C(F)(F)F)c2)nn1-c1ccc(C(=O)N2CCOCC2)cc1	-5	-13
CC(Sc1nccn1C)C(=O)Nc1ccccc1 (stereo unspecified)	1	-5
CCC1(C)OC(=O)N(C)C1=O (stereo unspecified)	-3	-10
COc1ccc(-c2nc3ccc(C)cn3c2NC(=O)CC(C)C)cc1OC	-5	-4
Cc1nn2c(nnc3c(=O)[nH]cc(C)c32)c1-c1ccccc1	-9	-15
COc1cccc(C(=O)Nc2cccc(C3SCC(=O)N3c3ccccc3F)c2)c1 (stereo unspecified)	14	18
COc1ccc2cc(C(=O)C3CCCN(C(=O)c4snnc4C)C3)ccc2c1 (stereo unspecified)	0	-1
Cc1cc(S(=O)(=O)N2CCN(Cc3nc(-c4ccc(F)cc4)no3)CC2)ccc1Br	-9	-12
CCOc1ccc(-n2c(SCc3ccccc3C)nc3c(c2=O)SCC3)cc1	0	51
Cc1nnc(NC(=O)CSc2nnc(CNC(=O)c3cccs3)n2-c2ccc(F)cc2)s1	3	3
CC(C)(C)OC(=O)C1CN(C(=O)c2ccc(N3CCCC3)c(F)c2)CCO1 (stereo unspecified)	-1	-4
O=C(NC1CCN(c2ccccc2C(=O)NCc2cccnc2)CC1)c1ccco1	21	30
CCCCNC(=O)N1CCCN(c2nc(CC(C)C)nc3c2c(C)nn3-c2ccccc2)CC1	12	14
CN(Cc1c(F)cccc1Cl)C(=O)c1nc(N2CCOCC2)ncc1Cl	-1	-1
Cc1ccccc1CNC(=O)c1ccc2sc([C@H]3C[C@H](O)[C@@H](CO)O3)nc2c1	7	6
CNC(=O)[C@H]1C[C@]2(CCCCN(C)C2=O)N(C(=O)Cc2cccs2)[C@H]1c1ccco1	2	10
N#Cc1ccccc1S(=O)(=O)Oc1ccccc1	0	-3
O=C(CCCSc1ccc(NC(=O)c2ccc(F)cc2)nn1)NCCN1CCOCC1	-6	-5
CC(=O)Oc1ccccc1Cn1c(C)c(C(=O)NCc2ccccc2)sc1=O	7	1
CC(c1cccs1)N(C)C(=O)c1ccc(S(=O)(=O)N(C)C)cc1 (stereo unspecified)	7	7
COc1ccc(/C=N\NC(=O)CSc2nnc(-c3ccccc3)n2-c2ccccc2)cc1OCc1ccccc1	-4	-9
Nc1ccc2c3c(cccc13)C(=O)NC2=O	147*	136*
Cn1c(COc2ccc(Cl)cc2Cl)nc2ccccc21	3	4
CCn1c(N2CCN(Cc3ccccc3C)CC2)nc2c1c(=O)[nH]c(=O)n2C	6	0
CCCCc1cnc2c(c1SCC(=O)NC(C)C)c(=O)n(C)c(=O)n2C	6	10
Cc1noc(C)c1CN(C)CCOC1CCCCC1C (stereo unspecified)	4	1
CC(C)OCCN1CCC(Nc2ccc(C#N)cc2F)CC1	1	10
COc1ccc(C=C2N=C(c3ccc(OC(F)F)cc3)OC2=O)cc1	3	5
CN(C)C(=O)CNc1cc(Cl)ccc1C(=O)N1CCCCC1	2	2
O=C(COc1ccc(Cl)cc1)N=Nc1c(O)[nH]c2ccc(Br)cc12	0&-5	-3&-12
CN(CCn1ccc2ccccc21)C1CCN(S(C)(=O)=O)CC1	0	0
O=C(Nc1cccc(F)c1)N(Cc1ccncc1)C1CCCCC1	-5	-11
CCC(c1nc(CCc2ccccc2)nn1-c1ccnc(C)c1)n1cccn1 (stereo unspecified)	14	7
O=C1C(=Cc2ccccc2Br)CSc2ccc(F)cc21	-1	5
Cc1ccc(N2C(=O)CSC2c2ccccn2)cc1 (stereo unspecified)	-2	-13
CNc1nc2cnc(Nc3cccc(Oc4ccccc4)c3)cc2n1Cc1ccccc1	13	5
O=C(O)C1CCc2cn[nH]c2C1 (stereo unspecified)	8	2
O=C(CN1CCCC1c1ccc[nH]1)N1CCCCC1 (stereo unspecified)	3	0
CCCN1C(=O)CCc2cc(NC(=O)c3ccc(C#N)cc3)ccc21	6	0
COc1cc(OC)cc(-n2c(=O)c3sccc3n(CC(N)=O)c2=O)c1	4	4
Cc1ccn2c(=O)c(NC(=O)c3cccc(C(F)(F)F)c3)c(C)nc2c1	4	3
COc1ccccc1C1CC(c2cc(C)ccc2C)=NN1C(=O)CN(C)c1ccccc1 (stereo unspecified)	2	5
COC(C(=O)N1CCN(Cc2ccc(-c3noc(-c4ccco4)n3)cc2)CC1)c1ccccc1 (stereo unspecified)	-4	1
COCCn1c(N2CCN(Cc3cccc(C)c3)CC2)nc2c1c(=O)[nH]c(=O)n2C	3	27
CCC(C)C(Nc1ncc(C#N)cc1Cl)C(N)=O (stereo unspecified)	-1	-2
Nc1cccc(-c2cn(Cc3ccccc3)nn2)c1	1	-2

Part of the list above, with two lines to a compound.
Each structure is followed by: NPYLR7 ag	NPYLR7 ag max-min
CN(C)C(=O)CNc1cc(Cl)ccc1C(=O)N1CCCCC1
    2	2
O=C(COc1ccc(Cl)cc1)N=Nc1c(O)[nH]c2ccc(Br)cc12
    0&-5	-3&-12
CN(CCn1ccc2ccccc21)C1CCN(S(C)(=O)=O)CC1
    0	0
O=C(Nc1cccc(F)c1)N(Cc1ccncc1)C1CCCCC1
    -5	-11
CCC(c1nc(CCc2ccccc2)nn1-c1ccnc(C)c1)n1cccn1 (stereo unspecified)
    14	7
O=C1C(=Cc2ccccc2Br)CSc2ccc(F)cc21
    -1	5
Cc1ccc(N2C(=O)CSC2c2ccccn2)cc1 (stereo unspecified)
    -2	-13
CNc1nc2cnc(Nc3cccc(Oc4ccccc4)c3)cc2n1Cc1ccccc1
    13	5
O=C(O)C1CCc2cn[nH]c2C1 (stereo unspecified)
    8	2
O=C(CN1CCCC1c1ccc[nH]1)N1CCCCC1 (stereo unspecified)
    3	0
CCCN1C(=O)CCc2cc(NC(=O)c3ccc(C#N)cc3)ccc21
    6	0
COc1cc(OC)cc(-n2c(=O)c3sccc3n(CC(N)=O)c2=O)c1
    4	4
Cc1ccn2c(=O)c(NC(=O)c3cccc(C(F)(F)F)c3)c(C)nc2c1
    4	3
COc1ccccc1C1CC(c2cc(C)ccc2C)=NN1C(=O)CN(C)c1ccccc1 (stereo unspecified)
    2	5
COC(C(=O)N1CCN(Cc2ccc(-c3noc(-c4ccco4)n3)cc2)CC1)c1ccccc1 (stereo unspecified)
    -4	1
COCCn1c(N2CCN(Cc3cccc(C)c3)CC2)nc2c1c(=O)[nH]c(=O)n2C
    3	27
CCC(C)C(Nc1ncc(C#N)cc1Cl)C(N)=O (stereo unspecified)
    -1	-2
Nc1cccc(-c2cn(Cc3ccccc3)nn2)c1
    1	-2
